Sfp inh – blocks B. subtilis Sfp PPTase activity | hit rate 3.5% among 310,000 | Potency, µM, without a hit: max response, negative = inhibition, hits mostly inhibitors | Biochemical Sfp PPTase activity, qHTS | Q9F4F7; active = well fitted inhibition curve with a large enough effect; inconclusive = small, poorly fitted or top-dose-only effect, or another doubt; inactive = no such curve, though single readings can be large or run the other way;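 note: the enzyme is Sfp with the accession as filed and its product quenches rhodamine fluorescence; potency is the fitted concentration of half-maximal effect; 0% = enzyme reaction without inhibitor and -100% = no enzyme wells; top concentration of the series not given in the record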
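With Hepes-Na pH 7.6 buffer containing 10 mM MgCl2, Sfp (15 nM) modified BHQ-2-YbbR (12.5 uM) using rhodamine-CoA (5 uM). Two reads 30 minutes apart at 525/598 nm yielded each well's rate.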
ClpP mod – qHTS Assay for Activators of ClpP. ATP-dependent Clp protease proteolytic subunit (Bacillus subtilis (strain 168)), P80244. purified B. subtilis ClpP, FRET peptide cleavage, 20 min. Potency, µM (series often up to 57.5 µM), for inactives: at the top dose activity change, negative = active. hit rate 1.9% among 340,000. AID 651965, 2013; active = well fitted falling curve with a large enough effect; inconclusive = small, poorly fitted or top-dose-only effect; inactive = no such curve, though single readings can be large or run the other way; note: potency is the fitted concentration of half-maximal effect; the source files actives as falling curves though it sought activators and does not explain the sign; nearly all actives have a fitted effect of over 65% in size; many hits overshoot -100%
Target sequence (P80244 whole entry, looked up): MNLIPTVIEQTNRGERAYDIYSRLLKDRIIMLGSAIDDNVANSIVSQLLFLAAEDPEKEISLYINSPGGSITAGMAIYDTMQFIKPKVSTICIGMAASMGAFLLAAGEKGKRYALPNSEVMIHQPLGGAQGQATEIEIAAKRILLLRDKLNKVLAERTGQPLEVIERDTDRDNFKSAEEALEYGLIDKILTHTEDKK
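Purified B. subtilis ClpP, 10 microg/mL final in Tris/HCl pH8 with KCl, BSA, glycerol and Tween-20, cleaved an Abz/nitrotyrosine-quenched decapeptide. Fluorescence (ex 320, em 430) was read at 0 and 20 min at room temperature. Delta was normalized to 5.8 microM ADEP and DMSO/no-enzyme controls.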
D2 ag – agonists of human D2 dopamine receptor (beta-arrestin); AID 624465; hit rate 0.084% among 360,000; activation, % (test concentration not listed); P14416; DiscoveRx PathHunter D2 beta-arrestin, luminescence, 90 min; 100% = 57 uM dopamine signal; in the data active = activation above about 40%; inconclusive = about 15% to 40%; inactive = below about 15%; note: compound concentration not given in the record; the text of the record calls up to 30% inactive
Target sequence (P14416 whole entry, looked up): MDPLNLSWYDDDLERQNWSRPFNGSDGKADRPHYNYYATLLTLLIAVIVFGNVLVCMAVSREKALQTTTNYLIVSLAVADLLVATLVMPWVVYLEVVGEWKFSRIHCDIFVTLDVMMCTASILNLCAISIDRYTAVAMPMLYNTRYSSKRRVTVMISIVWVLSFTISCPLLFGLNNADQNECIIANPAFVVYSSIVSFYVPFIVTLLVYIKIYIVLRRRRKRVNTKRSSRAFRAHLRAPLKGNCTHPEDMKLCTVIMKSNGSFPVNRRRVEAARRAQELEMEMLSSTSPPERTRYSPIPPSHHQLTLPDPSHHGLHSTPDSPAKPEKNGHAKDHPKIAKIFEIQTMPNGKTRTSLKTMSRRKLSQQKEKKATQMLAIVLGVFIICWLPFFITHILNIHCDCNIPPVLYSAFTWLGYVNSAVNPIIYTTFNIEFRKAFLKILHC
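DiscoveRx PathHunter D2 beta-arrestin cells (2,100/well) attached overnight, then compound-stimulated 90 min at 37 C in HBSS/10 mM HEPES/0.1% Tween-20 buffer; beta-galactosidase complementation read by luminescence after 1 h at ambient temperature. Dopamine 57 uM final (EC100) as control.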
gsp agonist – agonists of gsp mutant (McCune-Albright syndrome); gsp mutant cells, cAMP HTRF, 30 min; control for the full effect not named in the record; Potency, µM (highest dose often 76.9 µM), without a hit: at the highest dose activation (cAMP increase), most hits filed as activators; hit rate 0.13% among 340,000; AID 624287; active = well fitted activation curve with a large enough effect; inconclusive = small, poorly fitted or top-dose-only effect, or another doubt; inactive = no such curve, though single readings can be large or run the other way; cell line not stated here;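 note: phosphodiesterase inhibitor Ro 20-1724 added with compounds to block cAMP breakdown; potency is the fitted concentration of half-maximal effect; nearly all actives have a fitted effect of over 60% in size; about a fifth of the inactives were tested at one dose only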
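Cells stably selected in G418 were plated at 2000/well, grown 16-24 hr, then given compounds in DMSO with the PDE inhibitor […] (300 uM solution added) for 30 min at 37C; cAMP was read by HTRF.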
gsp antag – antagonizes gsp, the McCune-Albright syndrome mutation; hit rate 0.4% among 340,000; AID 624288; Potency, µM (highest dose often 76.9 µM), inactives show at the highest dose activity change, negative = inhibition, usual class: inhibitors; gsp-mutant cells, cAMP HTRF, 30 min; control for the full effect not named in the record; active = falling curve of any shape with a large fitted effect; inconclusive = falling curve, mostly with a smaller effect; inactive = flat or rising curve; cell line not stated here;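 note: intracellular cAMP measured with PDE inhibitor Ro 20-1724 present during compound exposure; potency is the fitted concentration of half-maximal effect; % is set by controls: 0 for no effect and ±100 for the full control effect; nearly all actives have a fitted effect of over 65% in size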
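HTRF cAMP measurement after 30 min RT detection following 30 min, 37C compound treatment alongside […] (added as 300 uM solution) in G418-selected cells seeded at 2000/well and grown 16–24 h.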
PINK1 expr mod – modulators of PINK1 expression. hit rate 0.2% among 410,000. PINK1 immunofluorescence, high-content cytometry, 24 h. Potency, µM (top dose mostly 76.6 µM), for the others: at the top dose activation (PINK1 increase), usual class: activators; active = well fitted activation curve with a large enough effect; inconclusive = small, poorly fitted or top-dose-only effect; inactive = flat fitted curve, though single readings scatter; cell line not stated here;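 note: potency is the fitted concentration of half-maximal effect; % of control where 0% means no effect; nearly all actives have a fitted effect of over 65% in size; a mitochondrial uncoupler was the plate control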
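A stable cell line was treated with compounds at 5 concentrations for 24 hours, with CCCP as control. PINK1 levels and mitochondrial localization were measured by immunofluorescence with mitochondrial, cell and nuclear markers after fixation, read by laser-scanning cytometry.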
Menin-MLL FL inh – displaces fluorescein MLL peptide from human menin; Fluorescence polarization, fluorescein-MLL peptide displacement from menin; FP activity change, % at 61.4 µM; 290,000 tested, under 10 active; inconclusive = falling polarisation curve, or a change in total fluorescence; inactive = total fluorescence flat and polarisation flat or rising; no compound was filed as active; the % refers to the polarisation; negative = inhibition;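 note: % of control where 0% means no effect; inhibitors lower the polarisation; unlabelled MLL peptide was the positive control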
* marks the source's active call; other numbers are inactive results; ? = inconclusive; . = no result given; & = joins results of further samples; [ ] = dose if it differs, or a comment.

SMILES	Sfp inh	ClpP mod	D2 ag	gsp agonist	gsp antag	PINK1 expr mod	Menin-MLL FL inh
C/C(CC(C)(C)C1CCCCC1)=N\NC(N)=S	4%	-1.1%	-5.0	-25%	3%	-1.5%[38.3 µM]	-3.1
CC(C)N(Cc1nc(-c2ccccc2)no1)C(=O)CN(C)S(=O)(=O)c1ccccc1	7%	-1.0%	-0.8	11%	2%	-0.4%	3.1
Cc1ccc(NC(=O)CCS(=O)(=O)c2ccc(Br)s2)cc1	6%	0.2%	-11	-1%[15.4 µM]	7%	0.0%	-3.3
COc1ccc(S(=O)(=O)CC2(O)CCN(C(=O)CC(C)C)CC2)cc1	-12%	.	-3.3	17%[15.4 µM]	-34%	0.8%	4.1
CC(OC(=O)c1ccc(Br)o1)C(=O)Nc1ccc2c(c1)OCCO2 (centres undefined)	.	1.5%	-3.5	17%	1%	3.0%	.
Cn1c(O)c(C(C#N)=C2N=c3ccccc3=N2)c2ccccc21	7%	-1.3%	11	11%	?	6.7%	3.7
Cc1ccc(S(=O)(=O)N2CCOCC2)cc1NC(=O)CSc1nnnn1C1CC1	.	-0.2%	-2.5	-4%	.	-0.5%	.
O=C(NN1C(=O)C2C3CCC(O3)C2C1=O)c1ccc(Br)o1 (centres undefined)	25%	-1.1%	-5.3	-54%[inhibitor]	1%	16%	1.2
CC1=NNC(=O)/C1=C\c1cn(-c2ccccc2)nc1-c1ccccc1	3.5µM*	.	1.5	6%[15.4 µM]	-11%	-1.3%	8.9
CCSc1nnc(-c2ccncc2)o1	8%	-12%	1.2	?	9%	3.7%[38.3 µM]	0.7
O=C(NC(=S)NNC(=O)c1ccccc1O)c1cccs1	18%	.	-6.1	9%[15.4 µM]	-7%	-2.0%	.
COc1cc(OC)cc(-c2noc(-c3csc([C@@H]4O[C@H](CO)[C@H](O)[C@H](O)[C@H]4O)n3)n2)c1	.	-0.9%	-8.3	.	.	3.5%	.

Another view of part of the listing above:
SMILES: CCSc1nnc(-c2ccncc2)o1
  Sfp inh: 8%
  ClpP mod: -12%
  D2 ag: 1.2
  gsp agonist: ?
  gsp antag: 9%
  PINK1 expr mod: 3.7%[38.3 µM]
  Menin-MLL FL inh: 0.7
SMILES: COc1cc(OC)cc(-c2noc(-c3csc([C@@H]4O[C@H](CO)[C@H](O)[C@H](O)[C@H]4O)n3)n2)c1
  Sfp inh: .
  ClpP mod: -0.9%
  D2 ag: -8.3
  gsp agonist: .
  gsp antag: .
  PINK1 expr mod: 3.5%
  Menin-MLL FL inh: .
SMILES: O=C(NC(=S)NNC(=O)c1ccccc1O)c1cccs1
  Sfp inh: 18%
  ClpP mod: .
  D2 ag: -6.1
  gsp agonist: 9%[15.4 µM]
  gsp antag: -7%
  PINK1 expr mod: -2.0%
  Menin-MLL FL inh: .

Next compounds follow.
SMILES	Sfp inh	ClpP mod	D2 ag	gsp agonist	gsp antag	PINK1 expr mod	Menin-MLL FL inh
COc1cc(/C=N/NC(=O)CCN2CCN(C(c3ccccc3)c3ccccc3)CC2)ccc1O	?	.	-1.2	14%	-15%	3.6%	0.5
CCOc1cc(Br)c(CC(=O)O)cc1OCC	-3%	-3.0%	-2.2	6%	4%	-1.1%	3.6
CC(=O)N/N=C\c1ccccc1OC/C=C/c1ccccc1	18%	-2.4%	-0.8	-7%	1%	3.2%	1.9
COc1cc(C(=O)Nc2ccncc2)c([N+](=O)[O-])cc1OC	-10%	.	-0.6	-8%[15.4 µM]	9%	3.7%	-1.7
N#C/C(=C\N1CCN(Cc2ccc3c(c2)OCO3)CC1)c1nc2ccccc2s1	-5%	-3.7%	2.1	-53%[inhibitor]	-7%	?	?
O=C1CCc2cc(NS(=O)(=O)c3ccc(F)cc3)cc3c2N1CCC3	.	-0.7%	-1.1	-13%	-2%	4.1%	.
CCN1C(=O)[C@H]2[C@@H](c3ccc(-c4ccc(C(C)=O)cc4)cc3)N[C@@](Cc3ccccc3)(C(=O)OC)[C@H]2C1=O	.	-2.3%	-0.1	-32%[inhibitor]	-5%	-0.2%	.
COc1ccc(N2CCN(C(=O)c3cc(=O)[nH]c4ccccc34)CC2)cc1	6%	.	-3.7	8%[15.4 µM]	3%	0.5%	3.5
S=C(NCc1ccco1)Nc1cc(Cl)c(Cl)cc1Cl	14%	-1.7%	-1.4	-37%[inhibitor]	?	?	9.9
Cc1cc2cc(CNC(=O)Cc3cccs3)ccc2n1C	-11%	-8.4%	0.6	-21%	-7%	4.7%	?
O=c1[nH]c2cc3c(cc2cc1CN(Cc1cccnc1)C(=S)NCc1ccco1)OCO3	40µM*	.	2.4	15%[15.4 µM]	.	3.9%	-0.3
CC1CCCCC12NC(=O)N(CC(=O)NCCc1c[nH]c3ccccc13)C2=O (centres undefined)	.	-1.4%	-0.6	?	8%	0.3%	.
C/C(=N\NC(=O)c1cccc(Br)c1)c1cccnc1	14%	-0.9%	1.0	16%	2%	0.4%	0.0
Cc1ccc(NC(=O)C2CCN(S(=O)(=O)c3cccs3)CC2)cc1	13%	-0.9%	-0.3	6%	-2%	-1.6%&2.5%	0.7
CN(C(=O)COC(=O)c1ccc(Cl)c(S(=O)(=O)N2CCCCCC2)c1)C1CCS(=O)(=O)C1 (centres undefined)	.	-0.6%	13	-8%	-2%	-0.1%	.
O=C(C(Cl)c1ccccc1)N1CCOCC1 (centres undefined)	6%	.	-2.0	9%[15.4 µM]	4%	-2.8%	-1.0
CCOC(=O)C1=C(C)NC2=C(C(=O)c3ccccc32)C1c1ccc([N+](=O)[O-])o1 (centres undefined)	35µM*	-18%	5.5	14%[15.4 µM]	-3%	0.0%	2.0
CC1(C)Cc2c(sc(NC(=O)COc3ccccc3)c2C#N)C(C)(C)N1	6%	-2.5%	-3.2	17%[15.4 µM]	8%	1.0%	1.7
CCn1c(SCC(=O)c2ccccc2)nnc1-c1cccnc1	7%	.	0.9	-12%[15.4 µM]	4%	-0.7%	7.8
CCOC(=O)/C=C/C(=O)Nc1ccc(S(=O)(=O)Nc2cc(C)on2)cc1	15%	.	-2.4	-21%	5%	2.9%	.
O=C(CCN1CCOCC1)c1ccc2c(c1)OCCO2	-15%	-0.6%	-3.6	7%	-8%	-1.2%	0.6
COCCCNC(=S)Nc1ccc2nc3n(c(=O)c2c1)CCCCC3	21%	-1.3%	-4.9	25%	0%	1.0%	2.1
O=C(NNC(=S)NCc1ccco1)c1ccccc1Br	17%	1.4%	-4.8	23%	-1%	1.2%	.
CC(=O)C1=C(O)C(=O)N(c2ccc(S(N)(=O)=O)cc2)C1c1ccc([N+](=O)[O-])cc1 (centres undefined)	-13%	0.0%	-4.5	18%	4%	1.8%	1.3

Given with two lines to a compound: five of the compounds above
Order of values: Sfp inh | ClpP mod | D2 ag | gsp agonist | gsp antag | PINK1 expr mod | Menin-MLL FL inh
CCn1c(SCC(=O)c2ccccc2)nnc1-c1cccnc1
  7% | . | 0.9 | -12%[15.4 µM] | 4% | -0.7% | 7.8
Cc1ccc(NC(=O)C2CCN(S(=O)(=O)c3cccs3)CC2)cc1
  13% | -0.9% | -0.3 | 6% | -2% | -1.6%&2.5% | 0.7
O=C(NNC(=S)NCc1ccco1)c1ccccc1Br
  17% | 1.4% | -4.8 | 23% | -1% | 1.2% | .
COCCCNC(=S)Nc1ccc2nc3n(c(=O)c2c1)CCCCC3
  21% | -1.3% | -4.9 | 25% | 0% | 1.0% | 2.1
CC1(C)Cc2c(sc(NC(=O)COc3ccccc3)c2C#N)C(C)(C)N1
  6% | -2.5% | -3.2 | 17%[15.4 µM] | 8% | 1.0% | 1.7

Following part.
SMILES	Sfp inh	ClpP mod	D2 ag	gsp agonist	gsp antag	PINK1 expr mod	Menin-MLL FL inh
O=C(NC1CCCC1)c1ccccc1-c1ccccc1	15%	32µM*	-3.6	-4%	10%	0.7%	0.8
Cc1n[nH]c2ccc(Br)cc2c1=O	.	-2.6%	-4.8	4%	.	-0.3%	.
COc1ccc(CNC(=O)CN(c2ccccc2)S(=O)(=O)c2ccccc2[N+](=O)[O-])cc1	4%	.	-1.9	1%[15.4 µM]	.	-0.3%	-6.3
CC1(C)OC(=O)C(=CNc2ccccn2)C(=O)O1	0%	.	2.8	-4%[15.4 µM]	7%	1.0%	0.3
CCC(C)NCCC(=O)Nc1ccc(Cl)c(S(=O)(=O)Nc2ccc(Cl)cc2)c1 (centres undefined)	1%	.	-1.6	9%[15.4 µM]	.	2.4%	-0.3
CN(CC(=O)O)S(=O)(=O)c1ccc2c(c1)n(C)c(=O)c(=O)n2C	1%	.	6.0	17%[15.4 µM]	3%	1.3%	-2.0
O=C1C(c2ccccc2)NC(=S)N1C1CCCCC1 (centres undefined)	5%	-0.4%	7.0	-13%	8%	4.7%	0.8
CCOc1cc(N2CCOCC2)c(OCC)cc1NC(=O)COC(=O)CCn1c(C)csc1=O	.	-0.6%	-0.3	?	-13%	0.1%	.
O=C(CCCn1ncn2c(cc3occc32)c1=O)NCc1cccc(Cl)c1	-8%	-1.0%	-1.2	25%	-8%	-0.4%	.
COC(=O)C(/C=N/O)NC(=O)c1ccccc1 (centres undefined)	5%	.	-1.7	-12%[15.4 µM]	17%	0.3%	6.1
CCOc1ccc(NC(=O)CSc2ncc(-c3ccc(F)cc3)n2Cc2ccco2)cc1	18%	-1.1%	-2.1	17%	-22%	19%	2.3
COc1ccc(S(=O)(=O)N2CCOC2CNC(=O)C(=O)NCCc2c[nH]c3ccccc23)cc1C (centres undefined)	13%	0.9%	-1.0	-68%[inhibitor]	-10%	0.6%	2.0
